High-throughput results: PubChem BioAssay, ICCB-Longwood Screening Facility, Harvard Medical School
CapD inh – inhibitors of Bacillus anthracis CapD enzyme. z-score (test concentration not listed). purified CapD enzyme, fluorescence intensity read-out; stronger effect = lower value; some hits fall short of the stated cut. 140,000 tested, 0.23% active;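 active = z-score under -4 in either of two replicates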;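 also: stock transfer was 100 nL into about 40 µL; score is relative to mean and spread of the plate; one replicate is shown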
AID504770 – growth inhibitors of E. coli YBA685 in a screen for V. cholerae RctB (chromosome II replication) inhibitors | E. coli YBA685 rctB-dependent plasmid, OD600 growth, 3 h; stronger effect = lower value | z-score (no concentration beside the values) | 130,000 tested, 0.27% active;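 active = z-score under -2 on both plates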;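 also: wells of about 30 µL received 100 nL stock; score is relative to mean and SD of the test wells; the first replicate is given; strong numbers were not always called active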
* = called active by the depositor; x = not tested or not shown.

Results follow in this order: CapD inh | AID504770
> O=c1oc2ccccc2cc1S(=O)(=O)c1ccccc1
  2.33 | -0.7
> COC(=O)/C(C#N)=C/c1cccc(O)c1
  x | -0.65
> CCOC(=O)C1=C(CSc2nnc(Cc3ccc(OC)cc3)n2N)NC(=O)NC1C (stereo not given)
  x | -0.05
> CCN(CC)S(=O)(=O)c1ccc(C(=O)OC(C)C(=O)NC2CCCCC2)cc1 (stereo not given)
  x | 2.3
> Cc1ccc(CNS(=O)(=O)c2cccc3nsnc23)cc1
  -0.14 | x
> O=C(CCC(=O)c1cccs1)OCc1nnc(-c2ccccc2)o1
  x | 0.4
> O=C(Oc1ccccc1)c1ccc2nccnc2c1
  x | -1.55
> CCn1cc(C(=O)N(C)Cc2cccc(Cl)c2)c(=O)c2ccc(C)nc21
  x | 0.05
> O=C(/C=C/c1ccccc1)Nc1nc2c(s1)CCCC2
  0.295 | -0.25
> Cc1[nH]nc2c1C(c1ccccc1)NC2=O (stereo not given)
  -0.24 | -2.5
> CCOC(=O)N1CCN(S(=O)(=O)c2ccc(C(=O)Nc3nc4ccc(NC(C)=O)cc4s3)cc2)CC1
  -0.49 | x
> CCCCCSc1nnc2c(n1)[nH]c1ccccc12
  -0.035 | x
> CCCCc1ccc(-c2nc(C=Nc3ccc([N+](=O)[O-])cc3Cl)c(O)o2)cc1
  -0.63 | x
> COCc1cc(=O)[nH]c(/N=C(\N)Nc2ccc(C)cc2)n1
  0.825 | -0.15
> COc1ccc(C(=O)O/N=C/c2c(-c3ccccc3)nc3sccn23)cc1
  -0.165 | x
> CSC(=NCCSCc1c(Cl)cccc1Cl)NC#N
  0.11 | x
> Cc1ccc(N(C(C)C(=O)Nc2ccc(S(=O)(=O)N3CCOCC3)cc2)S(C)(=O)=O)cc1C (stereo not given)
  -0.26 | -0.75
> O=C(CCCO)NCc1ccc(F)cc1
  0.6 | 0.05
> CC(C)Oc1cccc(C(=O)N2CCCCC2)c1
  0.115 | -0.75
> COc1ccc(C(=O)CC(Sc2ccccc2)c2ccc(C(C)C)cc2)cc1 (stereo not given)
  0.3 | x

6 entries already listed, sorted by molar mass, largest number first.
Results follow in this order: CapD inh | AID504770
> CCOC(=O)N1CCN(S(=O)(=O)c2ccc(C(=O)Nc3nc4ccc(NC(C)=O)cc4s3)cc2)CC1
  -0.49 | x
> Cc1ccc(N(C(C)C(=O)Nc2ccc(S(=O)(=O)N3CCOCC3)cc2)S(C)(=O)=O)cc1C (stereo not given)
  -0.26 | -0.75
> CCCCc1ccc(-c2nc(C=Nc3ccc([N+](=O)[O-])cc3Cl)c(O)o2)cc1
  -0.63 | x
> COc1ccc(C(=O)CC(Sc2ccccc2)c2ccc(C(C)C)cc2)cc1 (stereo not given)
  0.3 | x
> COc1ccc(C(=O)O/N=C/c2c(-c3ccccc3)nc3sccn23)cc1
  -0.165 | x
> CSC(=NCCSCc1c(Cl)cccc1Cl)NC#N
  0.11 | x

Remaining list, next part.
Results follow in this order: CapD inh | AID504770
> CC(=O)Nc1ccc(/C=N/NC(=O)c2cc3ccccc3cc2O)cc1
  0.32 | x
> Cc1sc2ncn3nc(-c4ccc5c(c4)OCO5)nc3c2c1C
  x | 2
> COC(=O)C(C)Oc1ccc(N2C(=O)c3ccccc3C2=O)cc1 (stereo not given)
  x | -0.4
> CCOC(=O)C(C)Oc1ccc2c(C)cc(=O)oc2c1 (stereo not given)
  71.8 | -0.05
> O=C(CCC(=O)N1CCC(N(C2CC2)S(=O)(=O)c2cccc(C(F)(F)F)c2)CC1)NCc1ccccn1
  -0.045 | x
> CCCCNc1ccc(C(F)(F)F)cc1N
  x | -0.7
> COc1cccc(C(=O)CN2C3=NCCCN3c3ccccc32)c1
  0.08 | -2.8
> Cc1ccsc1C(=O)OCC1CCCO1 (stereo not given)
  0.5 | 0.7
> Cc1[nH]c2ccccc2c(=O)c1CN1CCCC1
  -0.025 | -1.2
> Cc1ccc(S(=O)(=O)Nc2c(C)n(C)n(-c3ccccc3)c2=O)cc1
  0.415 | 0.45
> Cc1cc(=O)n2nc(N(C)CC(=O)O)sc2n1
  0.64 | -0.45
> CN(C)C(=O)CSc1nc2ccc(C(=O)c3ccccc3)cc2[nH]1
  -1.19 | 0.45
> CCOC(=O)N1CCN(CC(O)COC2C3(C)CCC(C3)C2(C)C)CC1 (stereo not given)
  -0.425 | 0.55
> Cc1cc(S(=O)(=O)/N=C/N(C)C)c(C)cc1Cl
  0.21 | -1
> CN(C)CC(=O)Nc1ccc(S(N)(=O)=O)cc1
  x | 2.5
> COc1cc(C2Nc3ccc(C(=O)c4ccccc4)cc3NC3=C2C(=O)CC(C)(C)C3)cc(OC)c1OC (stereo not given)
  -0.41 | x
> OCCNC(=S)NC1CC2C=CC1C2 (stereo not given)
  0.485 | 0.45
> O=C(O)CC1(CC(=O)N2CCN(c3cc(C(F)(F)F)ccn3)CC2)CCCC1
  80.6 | x
> c1ccc2[nH]c(CCn3c4ccccc4c4ccccc43)nc2c1
  -0.2 | 1.05
> O=C(O)CCC1C(=O)NC(=O)NC1=O
  x | -0.15

Molecules from the list above that have a Cl atom, in the order listed:
Results follow in this order: CapD inh | AID504770
> CCn1cc(C(=O)N(C)Cc2cccc(Cl)c2)c(=O)c2ccc(C)nc21
  x | 0.05
> CCCCc1ccc(-c2nc(C=Nc3ccc([N+](=O)[O-])cc3Cl)c(O)o2)cc1
  -0.63 | x
> CSC(=NCCSCc1c(Cl)cccc1Cl)NC#N
  0.11 | x
> Cc1cc(S(=O)(=O)/N=C/N(C)C)c(C)cc1Cl
  0.21 | -1

Remaining list, next part.
Results follow in this order: CapD inh | AID504770
> Cc1ccc(NC(=O)Cc2nc(COC(=O)C3CC(=O)N(Cc4ccco4)C3)cs2)cc1 (stereo not given)
  x | -0.45
> Cc1cc(C)nc(N/N=C/C2=C(O)CC(C)(C)CC2=O)n1
  x | -2.85
> CN(C)S(=O)(=O)N(Cc1ccc(Br)cc1)c1ccccc1
  -0.51 | 1.15
> CC1=CC(c2ccoc2)c2c(oc(N)c(C#N)c2=O)S1 (stereo not given)
  0.71 | 0.7
> CCC(Nc1ccccc1)C(=O)N/N=C/c1ccccc1O (stereo not given)
  -0.1 | -0.6
> Cn1c(N)c(NC2CC(C)(C)NC(C)(C)C2)c(=O)[nH]c1=O
  x | -0.5
> CCC(=O)NC(C)c1nc2ccccc2n1Cc1ccccc1C (stereo not given)
  0.28 | -0.55
> O=C1CCN(c2cccc(F)n2)CC1
  1.56 | -0.7
> CC(Oc1ccccc1)C(=O)Nc1c[nH]c(=O)[nH]c1=O (stereo not given)
  x | -0.7
> Cn1c(=S)oc2ccccc21
  -0.455 | 1.85
> CCN(CC)c1ccc(/C=N/N(CCC#N)C2=NS(=O)(=O)c3ccccc32)cc1
  -1.43 | 0.75
> CC(=O)Nc1cc(NC(C)=O)cc(C(=O)OCC(=O)N2CC(C)OC(C)C2)c1 (stereo not given)
  x | -0.25
> O=C(Oc1nnc(SCCS(=O)(=O)c2ccc(F)cc2)n1C1CC1)c1cccs1
  0.76 | 0.2
> N#CCCN(C(=O)c1cccs1)c1ccccc1F
  -1 | 0.85
> O=C(CCC1CCCC1)N1CCN(C2CCCCC2)CC1
  x | -0.75
> CCOC(=O)c1sc2nc(SCC(=O)NCc3ccco3)n(CCC3=CCCCC3)c(=O)c2c1C
  2.34 | x
> Cc1ccc(NC(=O)CSc2ccnc(=O)[nH]2)cc1
  x | 2.55
> CCS(=O)(=O)N1CCN(Cc2nc3sc4c(c3c(=O)[nH]2)CCC(C(C)(C)C)C4)CC1 (stereo not given)
  x | 1.35
> Cc1cc(SC(=O)N/C=C/c2ccco2)c(C)cc1Cl
  0.765 | 0.3
> COc1ccc(-c2nc(=O)c3ccccc3o2)cc1OC
  3.07 | -0.15

(further entries)
structure,CapD inh,AID504770
COc1ccc(C2C(C#N)=C(N)Oc3n[nH]c(C)c32)cc1COc1cccc(Cl)c1 (stereo not given),-0.38,x
CC(CCN1CCN(C)CC1)c1ccccc1 (stereo not given),-0.13,-0.9
C/C(=N\NC(=O)c1ccc(Br)o1)c1ccc(N)cc1,-1.81,0.7
CCn1c2ccccc2c2cc(C=Nc3ccc(OC)cc3)ccc21,12,0.1
c1cc(N2CCOCC2)nnc1N1CCOCC1,8.79,-0.95
NNC(=O)/C=C/c1ccc(-c2ccc(F)cc2)o1,x,1.65
O=C(CSc1cn(CC(=O)N2CCCC2)c2ccccc12)Nc1ccccc1,-0.26,0.55
CC1CCCCC1NS(=O)(=O)c1ccc(S(=O)(=O)N2CCN(CCC#N)CC2)cc1 (stereo not given),0.27,-0.5
O=c1[nH]c(=S)[nH]c(O)c1C=Nc1cc(C(F)(F)F)cc(C(F)(F)F)c1,-0.195,-0.8
Cc1ccc(C(O)c2ccccc2)s1 (stereo not given),1.32,-0.95
COc1ccccc1NC(=O)c1nn(-c2ccc(F)c(F)c2)ccc1=O,-0.15,x
O=C(O)c1cnc(N2CCCC2)nc1,-0.415,-0.1
O=S(=O)(NCCc1ccccc1)c1ccc(F)cc1,0.31,0.4
BrCC12CC3CC(CC(C3)C1)C2,-1.12,2.1
O=C(Nc1ccccc1)Nc1cc(-c2ccccc2)[nH]n1,-0.215,0.1
COc1ccccc1-c1nc2nc(C)cc(=O)n2[nH]1,0.135,0.25
CC(C)(C)c1cc(N)ncn1,x,-0.4
Cc1ccc(SCC(=O)c2ccc[nH]2)cc1C,x,-0.85
CCCCOc1ccc(-c2[nH]nc3c2C2(C(=O)N(CC(=O)O)c4ccccc42)C(C#N)=C(N)O3)cc1 (stereo not given),0.14,x
O=C(c1ccc(N2C(=O)c3ccccc3C2=O)cc1)N1CCN(S(=O)(=O)c2ccccc2F)CC1,x,0.45
O=C(NCCc1ccccc1)c1nnc(C(Nc2ccccc2)c2ccc(Cl)cc2)o1 (stereo not given),0.065,-0.65
Cc1ccc(NC(=O)CSC2=NC(N)=C(C#N)C3(CCCCC3)C2C(N)=O)cc1 (stereo not given),x,-0.55
CCn1c(SC)nnc1C1CCCN(C(=O)Cc2cccnc2)C1 (stereo not given),x,0.95
CNC(=O)C(=O)Nc1ccc(Cl)c(C(F)(F)F)c1,-0.055,x
N#CCc1nc(-c2cc3cc(Br)ccc3oc2=O)cs1,x,0.55
CCc1ccccc1N1C(=N)SC2CS(=O)(=O)CC21 (stereo not given),1.04,-0.3
CC1=C(C)OC(C)(C(=O)/C=C/c2ccccc2)CC1 (stereo not given),-0.825,-0.35
COc1ccc(OC)c(S(=O)(=O)N2CCc3ccccc32)c1,0.28,x
CCOC(=O)C(=C/N(C)C)/N=C/C(C(=O)c1ccccc1)=C(/O)c1ccccc1,-0.755,x
CCC1(C)CC(CCNCc2ccccc2)(c2ccc(C)cc2)CCO1 (stereo not given),-0.475,x
O=C(c1ccco1)N1CCC(N(C2CC2)S(=O)(=O)c2cccc(C(F)(F)F)c2)CC1,-0.645,x
O=C(CN1C(=O)S/C(=C\c2cccs2)C1=O)Nc1ccc(-c2nnc3n2CCCCC3)cc1,x,0
COCc1nc2ccccc2c2c1C(=O)N(CCc1cc(OC)cc(OC)c1)C2=O,0.4,x
CCCCNC(=O)Cn1cc(C(F)(F)F)ccc1=O,x,-0.5
N/C(=N\OC(=O)Cc1cccs1)c1ccccc1,0.465,-0.2
O=C(OCC1OC2C(Oc3nc(=O)ccn32)C1O)c1ccccc1 (stereo not given),0.015,1.15
Cc1cc(SCC(=O)Nc2ccccc2)c2ccccc2n1,3.4,-0.05
CCOc1ccc(NC(=O)C2CC2)cc1,0.305,0.1
COc1cc(Cc2ccc(N)c(OC)c2)ccc1N,x,-0.25
Cc1cccc(N(C)C(=O)CCS(=O)(=O)c2ccc3c(c2)SC(C)C(=O)N3)c1 (stereo not given),-0.445,0.95
Cc1ccccc1NC(=O)c1nn(-c2cccc(C(F)(F)F)c2)ccc1=O,-1.3,x
O=C(N/N=C/c1ccccc1)C1COc2ccccc2O1 (stereo not given),0.035,-0.95
COc1ccc(CCNc2nc(C)nc3sc4c(c23)CCCC4)cc1OC,0.3,x
O=C(COC(=O)C1CC(=O)N(CCc2ccc(Cl)cc2)C1)c1ccc(Cl)cc1 (stereo not given),0.505,0.3
N#C/C(=C(/O)CN1CCCC1)c1nc(-c2ccccc2)cs1,x,-0.25
CCC(=O)Nc1sc2c(c1C#N)CCCC2,x,-0.1
CN(C)Cc1ccc(CNCc2ccccc2OC(F)F)cc1,x,-0.6
CC(OC(=O)C1(c2cccc(F)c2)CCCC1)C(N)=O (stereo not given),x,0.3
CCOC(=O)c1c2n(c3ccc(O)cc13)CCC2,-0.06,-0.25
C=CCN1C(=O)/C(=c2\sc3n(c2=O)C(c2ccc(OC)cc2)C(C(=O)OCC)=C(C)N=3)c2ccccc21 (stereo not given),-0.09,x

Following part:
structure,CapD inh,AID504770
Cc1nn2c3ccccc3n(CC(=O)c3ccc(Cl)cc3)c2nc1=O,0.27,x
Cc1occc1-c1n[nH]c(=O)o1,0.225,0.55
COC(=O)c1ccsc1N1C(=O)c2ccccc2C1=O,-0.695,-0.55
CC(C)N(C(=O)Cn1cc(SCC(=O)N2CCOCC2)c2ccccc21)C(C)C,0.58,0.4
COc1ccc(OC)c(Sc2cc(-n3cccc3)c(Cl)cc2[N+](=O)[O-])c1,0.525,x
COc1cc(C2CSc3nc4sc5c(c4c(=O)n32)CCCC5)cc(Cl)c1O (stereo not given),8.06,1.1
O=C(O)c1cn(Cc2ccccc2Cl)c2ccc(S(=O)(=O)N3CCOCC3)cc2c1=O,0.175,-1.05
CCCn1c(SC(C)C(=O)c2ccc(NS(C)(=O)=O)cc2)n[nH]c1=O (stereo not given),x,-0.3
COC(=O)c1c(NC(=O)c2c(-c3ccccc3Cl)noc2C)sc2c1CCC(C(C)(C)C)C2 (stereo not given),-0.77,x
CO/N=C/c1ccc(SCc2cccc(C(F)(F)F)c2)c([N+](=O)[O-])c1,-0.505,x
